# Compound activity deposited in PubChem BioAssay by several laboratories.
# RecA intein inh = blocks M. tuberculosis RecA intein splicing; P9WHJ3; cell-free RecA intein splicing, fluorescence; inhibition, %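 (about 9 µM by stock and volumes)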; 290,000 tested, 0.75% active; AID 2221; in the data active means inhibition above about 30%; inconclusive means no clear call, values can overlap the other calls;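 further: 0% = vehicle wells and 100% = reference inhibitor control wells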
# Target sequence (P9WHJ3 whole entry, looked up): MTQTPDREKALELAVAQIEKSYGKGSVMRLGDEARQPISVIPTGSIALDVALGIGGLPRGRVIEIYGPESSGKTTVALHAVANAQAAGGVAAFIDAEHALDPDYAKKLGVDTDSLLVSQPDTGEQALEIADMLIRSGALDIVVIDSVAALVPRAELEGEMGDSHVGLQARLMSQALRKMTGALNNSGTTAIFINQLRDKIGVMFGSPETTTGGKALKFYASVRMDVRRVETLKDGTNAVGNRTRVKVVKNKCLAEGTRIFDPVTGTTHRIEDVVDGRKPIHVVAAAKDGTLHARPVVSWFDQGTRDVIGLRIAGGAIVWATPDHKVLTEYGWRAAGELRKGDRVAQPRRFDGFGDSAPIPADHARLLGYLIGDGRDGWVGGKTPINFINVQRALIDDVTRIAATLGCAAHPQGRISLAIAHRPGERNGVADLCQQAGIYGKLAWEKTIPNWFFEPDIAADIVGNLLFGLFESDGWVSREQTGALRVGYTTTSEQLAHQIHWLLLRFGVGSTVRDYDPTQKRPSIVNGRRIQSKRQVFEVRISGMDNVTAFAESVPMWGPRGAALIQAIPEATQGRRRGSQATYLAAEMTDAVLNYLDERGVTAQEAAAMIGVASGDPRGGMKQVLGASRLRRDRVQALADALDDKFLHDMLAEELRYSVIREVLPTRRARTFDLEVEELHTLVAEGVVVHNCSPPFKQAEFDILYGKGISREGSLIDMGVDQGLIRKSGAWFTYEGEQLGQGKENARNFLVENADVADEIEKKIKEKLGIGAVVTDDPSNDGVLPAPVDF
# Mtb growth = M. tuberculosis H37Rv growth inhibitors, H37Rv strain (AID 1626). M. tuberculosis H37Rv growth inhibition; higher % means a stronger effect. 220,000 tested, 0.95% active. inhibition, % at 10 µM, or IC50 in µM where a hit was titrated;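 active means confirmed in a dose series; inconclusive means inhibition above 80% but not taken into the dose series; inactive means below 80% or under 30% at every dose of the series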;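 further: bacteria incubated seven days before Alamar blue readout; 0% = bacteria only wells and 100% = bacteria with antibiotic wells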
# Arbovirus anti = blocks arbovirus infection; arbovirus infection cell-based antiviral screen; inhibition, % at 10 µM; AID 1251; 200,000 tested, 0.37% active;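 active means inhibition from about 30%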;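 further: bluetongue infection of BSR cells; cell survival read as ATP light after 72 h; 0% = infected wells without compound and 100% = uninfected wells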
# Mtb betalactam = beta-lactam sensitization of Mtb H37Rv; M. tuberculosis H37Rv growth with meropenem, percent inhibition; hits of this screen are not shown here; inhibition, % at 25 µM; 330,000 tested, 0.27% active;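 active means about 74% or more and at least 40 points above the plate without the antibiotic, then above 30% in a dose series; inconclusive means first-round hits that could not be retested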;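 further: growth measured after seven days incubation then overnight dye step; 0% = bacteria only wells and 100% = bacteria with antibiotic; twin plates without the antibiotic show which effects depend on it; some results filed as inactive read as strong as hits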
# YopH inh = blocks Yersinia enterocolitica YopH tyrosine phosphatase. fluorescence Ex485/Em525. 140,000 tested, 0.16% active. inhibition, %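 (about 10 µM by stock and volumes)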;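 active means inhibition of 50% or more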;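 further: controls were vehicle for no effect and minimum signal wells for full effect; inactives centre near -20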
# Arbovirus anti repeat = also measured in Arbovirus anti; calls as there; inhibition, %; measured here: 10K subset replicate screen; many hits read low in the repeat;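 first of two repeat runs on a subset; 0% = infected and 100% = uninfected wells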
# The depositor's hits bear a star; u = inconclusive; x = not tested or not shown. These rows are one share of the data; the hit share may differ from the screen's.
SMILES,RecA intein inh,Mtb growth,Arbovirus anti,Mtb betalactam,YopH inh,others
Cc1ccc(C)c(NC(=O)NCCN2CCCCC2)c1,-3.1,x,x,-3,x,
CC1CN(C(=O)Nc2ccc(Br)cc2Cl)CC(C)O1 (stereo not drawn),0.8,2%,1,-7,x,
O=C(NC1CCCCC1)c1cc(S(=O)(=O)N2CCCC2)ccc1Cl,-0.5,x,x,8,x,
CC1C/C(=C/c2cccn2C)C(=O)/C(=C/c2cccn2C)C1 (stereo not drawn),x,4%,-37,17,4,
Nc1ccc(Sc2ccccc2)nc1,-0.3,x,x,1,x,
Cc1onc(-c2ccccc2)c1C(=O)Nc1nnc(N2CCCCCC2)s1,3.1,-4%,-5,5,1,Arbovirus anti repeat=-9
COc1ccc(/C(C)=N/Nc2cccc(C(=O)O)c2)cc1OC,0.2,3%,2,2,x,
CCOc1ccc(NC(=O)CSc2nnc(Cc3ccccc3)c(=O)n2N)cc1,-0.1,x,x,-2,x,
Cc1ccc(C(=O)C(c2ccccc2)N2Cc3ccccc3C2=N)cc1 (stereo not drawn),29,42%,-29,66,-33,
CCn1cc(/C=C2/SC(=S)NC2=O)c(C)n1,-1.5,1%,-3,2,-21,

# A portion from further up, for reference:
SMILES,RecA intein inh,Mtb growth,Arbovirus anti,Mtb betalactam,YopH inh,others
CC1CN(C(=O)Nc2ccc(Br)cc2Cl)CC(C)O1 (stereo not drawn),0.8,2%,1,-7,x,
O=C(NC1CCCCC1)c1cc(S(=O)(=O)N2CCCC2)ccc1Cl,-0.5,x,x,8,x,
CC1C/C(=C/c2cccn2C)C(=O)/C(=C/c2cccn2C)C1 (stereo not drawn),x,4%,-37,17,4,
Nc1ccc(Sc2ccccc2)nc1,-0.3,x,x,1,x,
Cc1onc(-c2ccccc2)c1C(=O)Nc1nnc(N2CCCCCC2)s1,3.1,-4%,-5,5,1,Arbovirus anti repeat=-9
COc1ccc(/C(C)=N/Nc2cccc(C(=O)O)c2)cc1OC,0.2,3%,2,2,x,
CCOc1ccc(NC(=O)CSc2nnc(Cc3ccccc3)c(=O)n2N)cc1,-0.1,x,x,-2,x,

# Two compounds picked at random from those above:
SMILES,RecA intein inh,Mtb growth,Arbovirus anti,Mtb betalactam,YopH inh,others
Cc1ccc(C(=O)C(c2ccccc2)N2Cc3ccccc3C2=N)cc1 (stereo not drawn),29,42%,-29,66,-33,
CCOc1ccc(NC(=O)CSc2nnc(Cc3ccccc3)c(=O)n2N)cc1,-0.1,x,x,-2,x,

# Further records follow:
SMILES,RecA intein inh,Mtb growth,Arbovirus anti,Mtb betalactam,YopH inh,others
CCN(CC)S(=O)(=O)c1ccc(NC2CCN(Cc3ccccc3)CC2)nc1,0.4,x,x,-4,x,
Cc1ccccc1CN1CCNCC1,-1.0,-7%,0,4,x,
Cc1ccc([N+](=O)[O-])cc1NC(=O)C1CCCC1,0.6,x,x,6,x,
CN1CCN(c2ccc(NC(=O)c3ccc4c(c3)OCCO4)cc2Cl)CC1,-0.7,3%,-32,9,x,
Nc1ccc(Sc2ccccc2CC(=O)O)cc1,7.0,2%,5,-15,6,
Cc1cc2nc(/C=C/c3cccnc3)[nH]c2cc1C,-5.0,x,x,4,x,
Cc1ccc(CN2C(=O)C(=O)N(CC(N)=O)C2=O)cc1,-3.5,x,x,0,x,
Cc1ccc(NC(=O)N2C3CCCC2CC(NC(=O)C2CC2)C3)cc1 (stereo not drawn),-0.3,x,x,-2,x,
CC(=O)N1CCc2cc(S(=O)(=O)NCCC(=O)NCCc3ccc(C)cc3)ccc21,1.3,6%,7,4,-33,
Cc1nn(C)c(=O)n1-c1ccc(OCc2ccccc2)cc1,1.6,-7%,1,-1,0,
Cc1c(NC(=O)CC2NC(=O)NC2=O)c(=O)n(-c2ccccc2)n1C (stereo not drawn),-2.0,1%,18,2,x,
COc1ccccc1CNC(=O)Cn1cc([N+](=O)[O-])ccc1=O,-0.2,x,x,-12,x,
COc1cc(/C=N/NC(=O)c2ccc(CN3C(=O)c4cccc5cccc3c45)cc2)cc(OC)c1O,-5.3,1%,x,-4,x,
CN(C)S(=O)(=O)c1cccc(-c2nnc3n2CCCCC3)c1,0.8,-4%,x,-8,x,
CCCC12C(=O)C(C)(C(c3ccccc3)=C1c1ccccc1)C1C(=O)N(c3ccc(C)cc3)C(=O)C12 (stereo not drawn),0.5,-6%,4,8,-2,
Cc1ccc(Nc2nnc(SCC(=O)c3ccc(O)cc3O)s2)cc1,1.5,x,x,2,x,
CCc1ccc(C2C(=O)c3ccccc3C2=O)cc1,4.0,x,x,-2,x,
Cc1cc(C(=O)CSc2nnc(N)s2)c(C)n1C1CC1,-0.9,x,x,-2,x,
Cc1ccc(S(=O)(=O)N2CCCCC2)cc1NC(=O)CSc1nncn1-c1ccccc1,0.6,18%,7,0,x,
Cc1onc(-c2ccccc2)c1C(=O)OCCOc1ccccc1F,13,x,x,46,x,
COc1ccc(NC(=O)C(Cc2ccccc2)NC(=O)c2ccco2)cc1OC (stereo not drawn),-0.8,-4%,6,1,11,
Cc1ccc(C2=NOC(=O)/C2=C\c2ccccc2)cc1,-0.6,x,x,0,x,
NC(=O)c1ccc(NCC2CCCO2)c([N+](=O)[O-])c1 (stereo not drawn),3.9,x,x,1,x,
CCOc1ccc(NC(=O)Cc2ccccc2)c([N+](=O)[O-])c1,0.3,7%,-5,3,0,
CCOC(=O)C1CCCN(C(=O)c2sc3nc(-c4ccc(F)cc4)cn3c2C)C1 (stereo not drawn),-0.2,x,12,-12,-45,
CC(C)(C)c1ccc(-c2nn(CCC#N)cc2/C=N/O)cc1,-0.2,-4%,1,4,x,
CC(C)O/N=C1\C(=O)N(c2ccccc2)c2ccccc21,0.7,5%,-12,0,x,
Cn1c(=O)n(CC(=O)Nc2ccccc2)c2ccccc21,1.9,-11%,2,-17,-23,
Cn1c(N)c(C(=O)COC(=O)c2cc(-c3ccco3)nc3ccccc23)c(=O)n(Cc2ccccc2)c1=O,6.2,x,15,u,-18,
CCOC(=O)Cc1csc(NC(=O)c2sc3nc4cc(C)ccc4cc3c2N)n1,-3.4,9%,9,47,7,
CC(CN1CCOCC1)OC(=O)C(C)(c1ccccc1)c1ccccc1 (stereo not drawn),2.2,9%,-2,-2,-14,
COc1cc(-c2nnc(CSc3nnc(N)s3)o2)cc(OC)c1OC,0.5,5%,11,0,-6,
CN(C(=O)Cc1c[nH]c2ccccc12)C(C(=O)Nc1ccc2c(c1)OCO2)c1ccccc1 (stereo not drawn),4.3,9%,-15,4,4,
COc1ccc(Cc2nnc(NC(=O)c3ccccc3[N+](=O)[O-])s2)cc1,-2.3,16%,1,81,x,
O=C(NCC1CCCO1)c1ccc(NC(=O)c2ccc(Br)cc2)cc1 (stereo not drawn),2.5,x,x,4,x,
COc1ccc(CCNC(=O)CS(=O)Cc2nc(-c3cccs3)oc2C)cc1OC (stereo not drawn),3.5,5%,8,-4,-49,
CCOC(=O)Nc1ccc2c(c1)N(C(=O)CN(CC)CC)c1ccccc1C=C2,3.1,-5%,9,-1,-110,
CCOc1ccc(-n2c(SCC)nc3c(c2=O)SCC3)cc1,1.3,-12%,0,-4,-42,
CCOCCCNC(=S)N(CCN(C)C)Cc1cc2cc3c(cc2[nH]c1=O)OCCO3,-3.7,x,x,2,x,
Cn1cc(CCNCc2cn[nH]c2-c2ccc(-c3ccccc3)cc2)cn1,1.7,-2%,x,-10,x,
N#CCC(=O)Nc1ccc(C(=O)OCc2ccccc2Oc2ccccc2)cc1,4.5,x,x,6,x,
CC(=O)N(CCCNC(=O)c1ccccc1)C(=O)c1ccccc1,-0.7,x,x,-6,x,
CC1(C)NC(=O)N(CCOCCSc2ccccc2)C1=O,1.8,-4%,8,0,-23,
CC(=O)N1c2ccccc2N(Cc2ccc(C)cc2C)C(=O)C1(C)C,4.0,-1%,-4,0,-25,Arbovirus anti repeat=-12
O=C(c1ccccc1)N1CCN(c2ncnc3c(-c4ccccc4)nsc23)CC1,-2.2,1%,-6,-3,x,
Cc1cc(=O)[nH]c(SCC(N)=O)c1C#N,-0.3,6%,4,-4,-7,
COc1ccc(C2N=C(c3ccccc3)NC(c3ccccc3)=N2)cc1,3.0,2%,2,-2,-23,
Cc1sc(NC(=O)Cn2nc(C(F)(F)F)cc2C)c(C(=O)OC(C)C)c1C,0.1,3%,-5,0,-24,
CCCCn1c(N)c(N(CCOC)C(=O)c2cc(-c3ccc(F)cc3)nc3ccccc23)c(=O)[nH]c1=O,2.6,x,x,-6,x,
Cc1ccc2c(c1)C(O)(CC(=O)c1cccc(-n3cccc3)c1)C(=O)N2 (stereo not drawn),-2.5,-5%,-13,-15,x,

# Further results follow.
SMILES,RecA intein inh,Mtb growth,Arbovirus anti,Mtb betalactam,YopH inh,others
O=C(O)CSc1nnc(-c2cc3ccccc3o2)n1-c1ccccc1,-3.9,-6%,-1,-3,-56,
Cc1ccc(NC(=O)CCNC(=O)c2ccco2)cc1Cl,-0.4,x,x,85,x,
COc1cccc(CNCCc2c[nH]c3ccccc23)c1OCc1ccccc1,5.6,53%,-36,54,-15,
CCOC(=O)C(=CNc1ccc(Cl)cn1)C(=O)OCC,0.7,-3%,x,-5,x,
Cc1ccc2cccc(OCC(=O)N3CCc4ccccc43)c2n1,-2.1,-2%,2,8,x,
CC(NC1CCCC1)C(=O)Nc1ccccc1-c1ccccc1 (stereo not drawn),3.5,-7%,-3,1,-3,
CCOc1ccc(C(=O)NCCC2=CCCCC2)cc1OCC,-0.7,4%,-1,3,x,
Cc1c(N(C)C(=O)C2CCCN2S(=O)(=O)c2ccccc2)c(=O)n(-c2ccccc2)n1C (stereo not drawn),-0.5,-5%,8,0,-36,
CCc1nc(SCC(=O)Nc2cc(OC)ccc2OC)c2c(C)c(C)sc2n1,0.9,x,x,9,x,
CCc1nc(NCCN)c(C#N)c2c1CSC(C)(C)C2,2.3,-6%,-2,-6,1,
Cc1ccc(Nc2nc3ccccc3[nH]2)nc1,0.1,u,10,88,-25,
COc1ccc(N2CCN(c3ncnc4scc(-c5ccccc5)c34)CC2)cc1,14,x,x,14,x,
CCCCn1c(SCC(=O)N(CC)C2CCS(=O)(=O)C2)nnc1C(CC)N(C)C (stereo not drawn),-1.6,-1%,17,-5,-4,
CCOc1ccc(NC(=O)CN(C)C(=O)c2sc3ccccc3c2Cl)cc1OCC,-0.9,x,x,0,x,
Cc1cc(C)nc(Nc2ccccc2Cl)n1,-0.5,x,x,4,x,
COCC(COS(N)(=O)=O)Cc1ccccc1 (stereo not drawn),0.1,x,x,-5,x,
O=C(NCc1cccc(C(F)(F)F)c1)c1cccc(S(=O)(=O)N2CCN(Cc3ccccc3)CC2)c1,9.1,x,x,-4,x,
COc1ccc(O)c(CN2CCC(n3nccc3NC(=O)CCOc3ccccc3)CC2)c1,-4.5,x,x,u,x,
Cc1noc(C)c1COC(=O)c1ccc(S(=O)(=O)NCc2ccco2)cc1,15,9%,-4,6,-33,
Cc1noc(C)c1C(=O)N1CCOCC1,1.2,-4%,2,4,-23,
COC(=O)c1ccccc1NC(=O)CN(C)S(=O)(=O)c1cc(C)ccc1OC,6.3,-2%,5,4,5,
CCOC(=O)c1cc(-c2ccccc2)sc1NC(=O)COC(=O)c1cccc(S(N)(=O)=O)c1,-0.4,6%,-1,10,x,
CCOC(=O)CSCc1csc(CC(=O)Nc2ccccc2C)n1,-6.7,x,x,57,x,
Cc1ccc(OCC(O)Cn2c3ccccc3c3ccccc32)cc1 (stereo not drawn),7.0,73%,-36,24,-18,
CC1CCCC/C1=N\NC(=S)Nc1ccccc1 (stereo not drawn),-2.9,1%,-3,2,x,
COc1ccccc1C(=O)N1CCNC(=O)C1CC(=O)Nc1ccc(Cl)cc1 (stereo not drawn),5.3,4%,2,-6,38,
